Lassa entry inh = blocks Lassa virus binding to or entry into cells. Lassa virus pseudotype entry inhibition, cell reporter; control for the full effect not named in the record. Potency, µM (top dose mostly 37.9 µM), without a hit: at the highest dose activity change, negative = inhibition, most hits filed as inhibitors. 300,000 compounds, 1.2% hits. AID 540256; active means well fitted inhibition curve with a large enough effect; inconclusive means small, poorly fitted or top-dose-only effect, or effect the other way; inactive means flat fitted curve, though single readings scatter; tested in HEK293 cells; also: % is scaled to controls: 0 for no effect and ±100 for the full control effect; nearly all actives have a fitted effect of over 50% in size; luciferase read-out
RE007 growth inh = less growth of the S. pombe RE007 Vpr strain | S. pombe RE007 Vpr strain, BacTiter-Glo ATP luminescence, 24 h; control for the full effect not named in the record | Potency, µM (top dose mostly 92.2 µM), for inactives: at the top dose activity change, negative = less growth | 360,000 compounds, 0.21% hits; active = well fitted falling curve with a large enough effect; inconclusive = small, poorly fitted or top-dose-only effect; inactive = no such curve, though single readings can be large or run the other way;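 also: % is scaled to controls: 0 for no effect and ±100 for the full control effect; nearly all actives have a fitted effect of over 50% in size; the assay follows cell death caused by Vpr and the record does not say whether a fall means rescue or toxicity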
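Fission yeast RE007 carrying one integrated HIV-1 vpr copy, seeded at OD 0.01 in PMG+AL medium with 23 nL pinned compound. Grown 24 h at 30 degrees; viability read by BacTiter-Glo luminescence after 5 min.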
Cruzain inh Det = inhibitors of Trypanosoma cruzi cruzain with detergent | purified cruzain, Z-FR-AMC fluorescence, 0.01% Triton | Potency, µM, for the others: max response, negative = inhibition, hits mostly inhibitors | 200,000 compounds, 0.43% hits;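 also: plate controls were neutral wells for no effect and buffer without enzyme for full effect; nearly all actives have a fitted effect of over 40% in size; top concentration of the series not given in the record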
Target sequence (P25779 123-467 limits assumed): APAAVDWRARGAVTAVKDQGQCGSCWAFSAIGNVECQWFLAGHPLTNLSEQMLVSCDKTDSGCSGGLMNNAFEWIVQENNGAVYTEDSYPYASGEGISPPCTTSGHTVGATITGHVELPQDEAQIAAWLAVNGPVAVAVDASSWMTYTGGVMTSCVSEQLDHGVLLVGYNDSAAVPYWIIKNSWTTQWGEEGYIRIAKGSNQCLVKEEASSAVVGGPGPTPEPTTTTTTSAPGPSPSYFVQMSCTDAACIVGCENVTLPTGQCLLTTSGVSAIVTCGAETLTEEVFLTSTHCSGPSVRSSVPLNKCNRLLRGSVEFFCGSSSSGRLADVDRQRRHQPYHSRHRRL
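Read-out: AMC fluorescence (360 nm excitation, 450 nm emission), four reads over 2 min, first-to-third difference used. Conditions: cruzain 1.5 nM, Z-FR-AMC 2 uM, pH 5.5 acetate, 5 mM DTT, 0.01% Triton X-100.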
MARV entry inh = blocks Marburg virus binding to or entry into cells; 300,000 compounds, 1.8% hits; Marburg virus pseudotyped entry inhibition, cell reporter; control for the full effect not named in the record; about a third of the inactives were read at about 46 µM; Potency, µM (series often up to 37.8 µM), for the others: at the top dose activity change, negative = inhibition, actives largely listed as inhibitors; active = well fitted inhibition curve with a large enough effect; inconclusive = small, poorly fitted or top-dose-only effect, or effect the other way; inactive = flat fitted curve, though single readings scatter; tested in HEK293 cells; about a fifth of its hits are not listed in these tables; also: % is scaled to controls: 0 for no effect and ±100 for the full control effect; luciferase read-out
2A StopGo = FMDV 2A StopGo reporter, luciferase signal; 410,000 compounds, 1.2% hits; AID 1159524; Potency, µM (top dose mostly 57.9 µM), for the others: at the highest dose signal change, negative = less light; human cells with a luciferase reporter of 2A StopGo recoding; control for the full effect not named in the record; active = well fitted falling curve with a large enough effect; inconclusive = small, poorly fitted or top-dose-only effect; inactive = no such curve, though single readings can be large or run the other way; tested in HEK293T cells; also: % is scaled to controls: 0 for no effect and ±100 for the full control effect; nearly all actives have a fitted effect of over 45% in size; luciferase light after 4 h
NS1 inh = blocks influenza NS1 protein function | 270,000 compounds, 0.4% hits | AID 2326 | S. cerevisiae slowed by influenza A NS1, growth recovery by OD600 | Potency, µM (top dose mostly 46.1 µM), for the others: at the highest dose activity, positive = more growth; active means well fitted rising curve with a large enough effect; inconclusive means small, poorly fitted or top-dose-only effect; inactive means no such curve, though single readings can be large or run the other way; also: nearly all actives have a fitted effect of over 50% in size
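In this qHTS, NS1 from influenza A is expressed in budding yeast, where it slows growth. Cells are switched from glucose to 2% galactose medium (pH 6.0, -URA), treated with compound, and growth recovery is read at OD600.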
Cruzain inh noDet = inhibitors of Trypanosoma cruzi cruzain without detergent. 200,000 compounds, 2.3% hits. purified cruzain, Z-FR-AMC fluorescence, no detergent. P25779. Potency, µM, without a hit: max response, negative = inhibition, usual class: inhibitors;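 also: plate controls were enzyme without inhibitor for no effect and buffer without enzyme for full effect; nearly all actives have a fitted effect of over 40% in size; top concentration of the series not given in the record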
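Detergent-free condition (0.00005% Triton X-100) in acetate buffer pH 5.5 with DTT. 1.5 nM enzyme and compound were pre-mixed 15 min, then 2 uM Z-FR-AMC substrate added; reaction progress from fluorescence change between first and third reads (60 s).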
SARS PLP yeast = blocks SARS-CoV papain-like protease in a yeast assay; Potency, µM (highest dose often 32.9 µM), for the others: top-dose activity, positive = growth rescue; 330,000 compounds, 0.19% hits; S. cerevisiae expressing SARS-CoV PLpro, growth rescue; control for the full effect not named in the record; active means well fitted rising curve with a large enough effect; inconclusive means small, poorly fitted or top-dose-only effect; inactive means no such curve, though single readings can be large or run the other way; also: 0% is about no effect; nearly all actives have a fitted effect of over 55% in size; growth read by luminescence after 48 h
* marks the source's active call; other numbers are inactive results; ? = inconclusive; . = no result given; & = joins results of further samples; ! = repeats disagree; [ ] = another dose, or the depositor's remark. Unless noted, calls follow the shape of the dose curve; as a rule, active = well fitted curve in the direction sought with a large enough effect; inconclusive = small, poorly fitted or top-dose-only effect, or another doubt; inactive = no such curve, though single readings can be large; an effect the other way counts as inactive or inconclusive. Potency is read from the fitted curve at half-maximal effect.

SMILES	Lassa entry inh	RE007 growth inh	Cruzain inh Det	MARV entry inh	2A StopGo	NS1 inh	Cruzain inh noDet	SARS PLP yeast
CCOc1ccc(-n2cc(C(=O)N3CCCCCC3)c3cc(OC)c(OC)cc3c2=O)cc1	1.4%	5.0%	2.5%	-8.7%	-15.6%	-0.8%	8.3%	6.6%
CC(C)N(C)CCOC(=O)c1ccccc1Br	-9.8%	-11.3%	2.0%	-16.9%	3.1%	8.6%	-4.4%	-14.4%
O=C(/C=C/c1ccc(-c2ccccc2[N+](=O)[O-])o1)c1ccco1	-4.2%	-16.3%	.	-16.5%[46.1 µM]	-18.9%	.	.	-25.7%
COc1ccc(CNC(=O)C2CC(=O)N(c3ccc(OCC(=O)N4C(C)CCCC4C)cc3)C2)cc1 (stereo not given)	-2.8%	5.7%	0.7%	-0.2%	-0.5%	-10.2%	-7.6%	4.5%
C/C(CCc1oc2ccc(Br)cc2c1-c1ccc(C)o1)=N/O	-11.6%	-16.6%	-9.8%	?	?	-20.9%	-10.4%	-14.7%
Oc1ccccc1/C=N/Nc1nn[nH]n1	.	20.7%	.	.	-11.3%	5.4%	.	0.2%
COc1ccc(OC)c(S(=O)(=O)NC2CCSc3ccccc32)c1 (stereo not given)	20.1%	8.8%	.	1.5%	0.3%	9.3%	.	-2.1%
O=C(c1cc2ccccc2cc1O)N1CCN(c2ccc([N+](=O)[O-])cc2)CC1	-4.2%	4.9%	.	-10.5%	-9.9%	.	.	-2.0%
NCCCC[C@H](N)c1nnc([C@H](CCC(=O)O)NC(=O)C2CCNCC2)o1	.	-8.2%	.	.	-7.7%	3.6%	.	0.5%
O=C(O)CCn1nnc(-c2ccccc2)n1	5.9%	6.2%	.	17.1%[46.1 µM]	-12.5%	.	.	-1.6%
COc1cccc(C2C(C#N)=C(N)OC3=C2C(=O)CC(c2ccco2)C3)c1OCc1ccc(F)cc1 (stereo not given)	?	18.2%	-2.8%	15.8µM*!	-4.2%	-23.9%	?	-5.1%
CCOC(=O)Nc1nc(-c2ccc(Cl)cc2Cl)cs1	?	-28.1%	-9.1%	1.8%	21.0%	-0.2%	-14.3%	-43.1%
O=C(Nc1ncccn1)c1cc(-c2cccc(Br)c2)nc2ccccc12	-3.4%	0.9%	-7.3%	?	?	-5.7%	?	-42.6%
COc1ccc2c(c1)CCc1c(C(=O)NCCCn3ccnc3)noc1-2	-6.9%	-7.5%	-14.7%	25.6%	-7.1%	-6.3%	-11.9%	3.0%
COc1cc(CN2CCN(S(=O)(=O)c3ccc(F)cc3)CC2)cc(OC)c1OC	4.7%	-12.0%	-9.0%&-1.0%	8.0%[46.1 µM]	-5.4%	-12.0%	11.5%&-7.4%	?
CC1=C(C(=O)Nc2ccc(C)cc2C)C(c2ccc[nH]2)n2ncnc2N1 (stereo not given)	?	.	-0.1%	.	-22.6%	.	1.6%	.
CCOC(=O)c1c(NC(=O)c2cccc(N3C(=O)CCC3=O)c2)sc2c1CCN(CC)C2	.	1.3%	.	.	-22.0%	14.2%	.	-3.0%
CCc1cccc(C)c1NC(=O)COC(=O)C1CCN(S(=O)(=O)c2ccccc2)CC1	4.0%	6.8%	.	-3.4%	-16.2%	.	.	-6.3%
CCC(=O)n1nc(-c2ccc(Cl)cc2)nc1NCc1ccccc1	.	-1.6%	0.8%	-3.8%	29.7%	5.4%	6.6%	-0.9%
CCOC(=O)c1cnn(CCOC(=O)c2cccc(F)c2)c1NC(=O)c1cccc(F)c1	?	1.7%	2.9%	2.8%	3.9%	20.4%	2.9%	27.8%
CC1(C)CC(=O)C2=C(C1)N(c1ccc(F)cc1)C(=O)C2(O)C(F)(F)F (stereo not given)	5.0%	23.6%	-2.0%	5.6%	-8.2%	4.9%	28.9%	2.2%
CCOC(=O)c1c(C)[nH]c(C)c1C(=O)COC(=O)c1ccccc1O	-2.2%	0.8%	-6.4%	22.2%	-20.2%	-20.4%	2.9%	-12.7%
Cc1cccc2c1NC(=O)C2(O)N1CCCC(C)C1 (stereo not given)	18.6%	6.1%	.	-21.9%	35.7%[activator]	13.7%	.	9.2%
Nc1c2c(nc3ccn(Cc4ccccc4)c(=O)c13)CCC2	20.1%	-1.1%	-7.0%	?	-3.7%	-57.9%	-3.1%	-19.5%
Cc1ccc(C(=O)NCC(c2ccco2)S(=O)(=O)c2ccccc2)cc1C (stereo not given)	-17.4%[46.1 µM]	.	1.1%	.	28.6%	.	-7.0%	.
O=C(COC(=O)CCCc1c[nH]c2ccccc12)Nc1ccc2c(c1)OCO2	0.0%	-15.6%	-9.5%	20.1%	-24.3%	-49.5%	-2.4%	-10.6%
CCOc1cc(NC(=O)c2ccco2)c(OCC)cc1NC(=O)Cc1cccc(OC)c1	?	-18.5%	1.1%	2.7%&-57.2%	-13.3%	-9.2%	?	-8.2%
COc1ccc(CNC(=O)C2CC(=O)N(C3CCCC3)C2)cc1 (stereo not given)	23.2%[46.1 µM]	0.5%	.	-5.9%[46.1 µM]	-0.1%	2.8%	.	-2.6%
CC(=O)c1c(C)n(-c2cccc(Cl)c2)c2ccc(O)cc12	-9.5%[46.1 µM]	-11.3%	.	?	-14.1%	-6.0%	.	-0.7%
Cc1cccc(C=Nc2ccccc2C(N)=O)c1	?	-9.3%	7.4%	?	41.9%[activator]	0.5%	-7.1%	-4.6%
COc1ccc(-c2nnn(CC(=O)N3CCOCC3)n2)cc1	9.2%[14.3 µM]	21.1%	2.0%	3.5%	11.3%	7.7%	-11.3%	4.3%
O=C(Nc1c2c(nn1-c1ccc(Cl)cc1)CS(=O)(=O)C2)c1cccc(F)c1	8.1%[46.1 µM]	.	0.3%	.	0.0%	.	3.3%	.
COc1cccc(CNC(=O)CCC2CCCN(Cc3ccc(OC(F)F)cc3)C2)c1 (stereo not given)	8.1%[46.1 µM]	?	.	?	-13.4%	-5.5%	.	0.9%
O=C(NC(=S)NNC(=O)c1ccccc1O)c1cccc([N+](=O)[O-])c1	-22.4%	-22.5%	.	?	12.3%	-1.8%	.	4.4%
COC(=O)c1ccccc1NC(=O)c1ccnn1C	-15.6%	-9.6%	.	?	-19.4%	-3.1%	.	-3.3%
COc1ccc(CC(=O)N2CCc3cc(OC)c(OC)cc3C2COc2ccc(F)cc2)cc1 (stereo not given)	?	.	-0.2%	.	-15.6%	.	?	.
C=CCSc1nnc(CC(OC)OC)n1-c1ccccc1	9.4%[46.1 µM]	-9.4%	.	10.7%[46.1 µM]	9.5%	.	.	-2.1%
Nc1nc2nccc(-c3ccc(Cl)cc3)n2n1	24.6%	-3.0%	25.1µM*	3.2%[46.1 µM]	11.9%	-236.3%	-75.2%	-47.4%
Cc1cc(C)c(C)c(S(=O)(=O)NCc2ccc(C(=O)N3CCCC3)cc2)c1C	-13.5%	-6.2%	.	8.6%[46.1 µM]	-1.3%	-3.4%	.	17.7%
CN(NS(=O)(=O)c1ccc(Cl)cc1)c1nc(C(F)(F)F)nc2ccccc12	24.8%[46.1 µM]	?	.	1.0%[46.1 µM]	-12.7%	.	.	-17.9%
N#Cc1c2c(c(-c3ccco3)[nH]c1=O)CCCC2	5.5%	0.2%	-6.9%	5.9%&5.9%	-27.5%	3.3%	-18.3%	-0.4%
CCOC(=O)Cn1c(=O)oc2cc(S(=O)(=O)NCc3ccc(F)cc3)ccc21	4.3%[46.1 µM]	.	2.3%	?	24.7%	.	-3.6%	.
CCCc1c(C(=O)N/N=C/c2ccc(OC)c(OCc3ccccc3)c2)nnn1-c1nonc1N	.	-0.4%	.	.	0.0%	4.6%	.	1.0%
Cc1cc(C)c(NC(=O)CSc2nccn2Cc2ccco2)c(C)c1	11.4%[46.1 µM]	.	1.5%	.	44.7%[activator]	.	-2.8%	.
CC(C)CCOc1ccc(C(=O)N2CCN(c3ncccn3)CC2)cc1	.	3.4%	.	.	-17.2%	-3.2%	.	0.1%
C=C(C)CSc1nnc2n(C)c(=O)c3c4c(sc3n12)CCC4	3.4%	2.8%	-3.2%	-14.1%&-14.1%	-18.4%	-10.4%	0.8%	-2.4%
O=C(Nc1ccccc1N1CCN(C(=O)c2ccccc2)CC1)c1ccc([N+](=O)[O-])o1	-14.6%[46.1 µM]	-6.9%	.	?	0.0%	?	.	3.5%
CCOc1cc(/C=N/NC(=O)CSc2nncn2C)ccc1OCc1cccc(C)c1	-1.6%	-15.3%	-5.6%	-3.7%	-5.3%	-18.8%	?	-0.7%
O=c1[nH]c(=S)[nH]cc1Oc1ccc(Cl)cc1	6.4%	15.5%	.	-3.5%	-13.0%	.	.	.
CCOc1ccc(-c2csc(NC(=O)CSC3=NC(=O)CN3C(C)=O)n2)c2ccccc12	?	6.0%	-10.1%	-26.8%	-14.0%	?	25.4%	4.1%
CCn1c(SCc2cccc(C(=O)O)c2)nnc1-c1ccc(Cl)cc1	.	1.1%	.	.	2.3%	14.3%	.	-1.5%
COc1cc(/C=C2\SC(=O)N(CC(=O)Nc3cccc(C)c3)C2=O)cc([N+](=O)[O-])c1O	-27.2%	-3.4%	.	11.7%[46.1 µM]	?	.	.	2.6%
COC(=O)C/C=C/[C@@H](C)[C@@H](/C=N/OC[C@@H](C)[C@H](OCc1ccccc1)C(C)C)NS(=O)(=O)c1ccc(C)cc1	?	.	-7.7%	-14.2%[14.2 µM]	.	18.5%	?	0.9%
Cc1cc(C)c2c(CN3CCN(Cc4ccccc4)CC3)cc(=O)oc2c1C	.	-22.7%	.	.	?	-3.2%	.	-1.2%
O=C(O)c1ccc2c(c1)C(=O)N(Cc1ccc3c(c1)OCO3)C2=O	1.7%	-13.1%[3.69 µM]	0.5%	-2.3%	38.8%[activator]	4.9%	-1.5%	10.1%
OCCOCCOc1ccccc1OCCOCCO	5.9%	2.5%	.	19.9%[46.1 µM]	0.5%	.	.	2.8%

Assay outcomes: PubChem, National Center for Advancing Translational Sciences (NCATS)
